Six1-Eya2 blk: qHTS Assay for Inhibitors of the Six1/Eya2 Interaction | Homeobox protein SIX1 (Homo sapiens) + Protein phosphatase EYA2 (Homo sapiens), … | AlphaScreen GST-Six1/His-Eya2 binding, biochemical; stronger effect = lower value; control for the full effect not named in the record | activity change, % (concentration not given with the values) | hit rate 0.56% among 360,000 | AID 651725, 2012; in the data active = activity change below about -65%; inconclusive = about -30% to -65%; inactive = above about -30%; also: % is scaled to controls: 0 for no effect and ±100 for the full control effect
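Homogeneous AlphaScreen proximity assay pairing GST-Six1 with His-tagged Eya2 (added as 5X mix: 250 nM and 500 nM) in 50 mM Tris pH 8.0, 300 mM NaCl, 1 mM TCEP. Glutathione donor and nickel acceptor beads; 1 h, 37 °C, dark.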
gsp antag: qHTS for Antagonists of gsp, the Etiologic Mutation Responsible for Fibrous Dysplasia/McCune-Albright Syndrome: qHTS; gsp-mutant cells, cAMP HTRF, 30 min; control for the full effect not named in the record; Potency, µM (series often up to 76.9 µM), for inactives: at the highest dose activity change, negative = inhibition, most hits filed as inhibitors; hit rate 0.4% among 340,000; active = falling curve of any shape with a large fitted effect; inconclusive = falling curve, mostly with a smaller effect; inactive = flat or rising curve; cell line not stated here;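 also: intracellular cAMP measured with PDE inhibitor Ro 20-1724 present during compound exposure; potency is read from the fitted curve at half-maximal effect; % is scaled to controls: 0 for no effect and ±100 for the full control effect; nearly all actives have a fitted effect of over 65% in size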
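HTRF cAMP read-out (cAMP-d2 plus anti-cAMP antibody-K in lysis buffer, 30 min RT). Before lysis, cells are exposed to compounds with […] for 30 min at 37C in DPBS containing Ca/Mg, BSA and Tween 20.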
gsp ag: qHTS for Agonist of gsp, the Etiologic Mutation Responsible for Fibrous Dysplasia/McCune-Albright Syndrome: qHTS | gsp mutant cells, cAMP HTRF, 30 min; control for the full effect not named in the record | Potency, µM (doses to about 76.9 µM), without a hit: top-dose activation (cAMP increase), hits mostly activators | hit rate 0.13% among 340,000 | AID 624287, 2012; active = well fitted activation curve with a large enough effect; inconclusive = small, poorly fitted or top-dose-only effect, or another doubt; inactive = no such curve, though single readings can be large or run the other way; cell line not stated here;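 also: phosphodiesterase inhibitor Ro 20-1724 added with compounds to block cAMP breakdown; potency is read from the fitted curve at half-maximal effect; nearly all actives have a fitted effect of over 60% in size; about a fifth of the inactives were tested at one dose only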
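Cells in DMEM/10% FBS with G418 were pretreated with compounds in DMSO plus […] (300 uM stock) for 30 min at 37C. cAMP was measured by HTRF (cAMP-d2 plus anti-cAMP antibody-K) after 30 min at room temperature.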
CtBP-E1A inh: qHTS Assay for Inhibitors of the CtBP/E1A Interaction; CtBP / adenovirus E1A interaction (AlphaScreen); activity change, % (test concentration not listed); AlphaScreen GST-E1A/His-CtBP binding, 1536-well; stronger effect = lower value; control for the full effect not named in the record; hit rate 0.49% among 340,000; in the data active means activity change below about -65%; inconclusive means about -30% to -65%; inactive means above about -30%; also: % is scaled to controls: 0 for no effect and ±100 for the full control effect; compound concentration not given in the record
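Steps: dispense buffer (Tris pH 8.0, NaCl 300 mM, TCEP 1 mM, BSA, Tween 20); add 5X protein mix (GST-E1A, His-CtBP, 125 nM each); pin 23 nL compound; 2 h at 37 °C, dark; add 5X beads (50 ug/mL); 1 h; read.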
D2 PAM: Beta-Arrestin HTS for Positive Allosteric Modulators of the Human D2 Dopamine Receptor: Potentiators; DiscoveRx D2 beta-arrestin cells, luminescence, 90 min; 100% = 57 uM dopamine signal; potentiation, % (test concentration not listed); hit rate 0.23% among 360,000; active = potentiation of 50% or more; inconclusive = 30% to 50%; inactive = 30% or less;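 also: compound concentration not given in the record; tested on top of an EC20 dose of dopamine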
Target sequence (P14416 whole entry, looked up): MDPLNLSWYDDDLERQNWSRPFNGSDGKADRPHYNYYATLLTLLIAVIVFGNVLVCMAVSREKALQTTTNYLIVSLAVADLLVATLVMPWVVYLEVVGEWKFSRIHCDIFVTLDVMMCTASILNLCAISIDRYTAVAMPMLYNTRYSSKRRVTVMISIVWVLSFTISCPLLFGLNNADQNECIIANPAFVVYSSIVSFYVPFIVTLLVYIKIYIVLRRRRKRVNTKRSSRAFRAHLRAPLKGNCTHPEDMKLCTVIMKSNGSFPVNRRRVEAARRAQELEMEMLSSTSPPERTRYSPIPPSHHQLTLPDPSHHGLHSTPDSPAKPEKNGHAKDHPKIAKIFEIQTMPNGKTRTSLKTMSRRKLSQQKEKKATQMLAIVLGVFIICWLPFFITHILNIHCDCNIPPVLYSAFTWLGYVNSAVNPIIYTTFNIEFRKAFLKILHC
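PathHunter D2 cells, attached overnight at 37 deg C, received compound in DMSO plus dopamine at EC20 (50 nM final) for 90 min at 37 deg C. Beta-arrestin recruitment was read as luminescence after 1 h with detection reagent at ambient temperature.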
D2 agonist: Beta-Arrestin HTS for Positive Allosteric Modulators of the Human D2 Dopamine Receptor: Agonists; D(2) dopamine receptor (Homo sapiens), P14416; DiscoveRx PathHunter D2 beta-arrestin, luminescence, 90 min; 100% = 57 uM dopamine signal; activation, % (concentration not given with the values); hit rate 0.084% among 360,000; in the data active = activation above about 40%; inconclusive = about 15% to 40%; inactive = below about 15%; also: compound concentration not given in the record; the text of the record calls up to 30% inactive
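Agonist mode: compounds alone added to overnight-plated D2 PathHunter cells for 90 min at 37 C, with 57 uM final dopamine (EC100) defining full response. Beta-arrestin recruitment detected by chemiluminescent reagent, read after 1 h at ambient temperature.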
* = called active by the depositor; [ ] = dose if it differs, or a comment.

What do the screens show for `CCC1OC(c2ccc([N+](=O)[O-])cc2)=Nc2ccccc21` (stereo not given)?
Six1-Eya2 blk: -1; gsp antag: -4%; gsp ag: 3%; CtBP-E1A inh: -10; D2 PAM: 1; D2 agonist: -3.4

What do the screens show for `COc1ccc(-c2cc(C(=O)N3CCCc4ccccc43)no2)cc1`?
Six1-Eya2 blk: 1; gsp antag: -29%; gsp ag: -4%; CtBP-E1A inh: 5; D2 PAM: -12; D2 agonist: -1.9

What do the screens show for `COC(=O)c1cccc(C(=O)N2CCCC(C(=O)c3cccc(OC(C)C)c3)C2)c1` (stereo not given)?
Six1-Eya2 blk: -1; gsp antag: inconclusive; gsp ag: 2%; CtBP-E1A inh: 5; D2 PAM: -7; D2 agonist: 0.2

Results for NS(=O)(=O)c1ccc(N=C2C(=O)Nc3ccccc32)cc1 ?
Six1-Eya2 blk: 11; gsp antag: 10%; gsp ag: -2%; CtBP-E1A inh: 0; D2 PAM: -28; D2 agonist: -24

How did COc1cc2c(cc1OC)/C(=C/c1ccc(Br)cc1)C(=O)OC2 do in these assays?
Six1-Eya2 blk: -3; gsp antag: 10%; gsp ag: 6%; CtBP-E1A inh: 9; D2 PAM: -6; D2 agonist: -1.6

How did O=C(NCCCN1CCCC1=O)c1cc(S(=O)(=O)N2CCOCC2)c(Cl)cc1Cl do in these assays?
Six1-Eya2 blk: 5; gsp antag: 4%; gsp ag: -27%[15.4 µM]; CtBP-E1A inh: 1; D2 PAM: 0; D2 agonist: -2.3

What do the screens show for `CC1=C(C(=O)Nc2ccccn2)C(c2cccnc2)n2nnnc2N1` (stereo not given)?
Six1-Eya2 blk: 4; gsp antag: 5%; gsp ag: 7%; CtBP-E1A inh: 5; D2 PAM: 9; D2 agonist: -0.7

Results for COc1cc2nc(C)sc2cc1SC ?
Six1-Eya2 blk: 5; gsp antag: 14%; gsp ag: 2%; CtBP-E1A inh: 1; D2 PAM: -7; D2 agonist: -3.3

How did CCNC(=O)COc1cc(C)c(Br)c(C)c1 do in these assays?
Six1-Eya2 blk: -9; gsp antag: 4%; gsp ag: -2%; CtBP-E1A inh: -12; D2 PAM: -9; D2 agonist: 7.3

How did Cc1nnc(NC(=O)CSc2nnc(CC(=O)Nc3ccccc3Cl)n2C)s1 do in these assays?
Six1-Eya2 blk: 1; gsp antag: 5%; gsp ag: -1%[15.4 µM]; CtBP-E1A inh: 0; D2 PAM: 0; D2 agonist: 1.0

How did COc1ccccc1N1CN(S(=O)(=O)c2ccc(C)cc2)c2nc3ccccc3nc21 do in these assays?
Six1-Eya2 blk: 1; gsp antag: -6%; gsp ag: 0%[15.4 µM]; CtBP-E1A inh: -4; D2 PAM: -8; D2 agonist: -3.0

What do the screens show for `COc1ccc(C(=O)N(C)c2c(C)n(C)n(-c3ccccc3)c2=O)cc1OC`?
Six1-Eya2 blk: 8; gsp antag: -2%; gsp ag: 92%; CtBP-E1A inh: 6; D2 PAM: -2; D2 agonist: 0.0

How did Cc1ccc(-c2cc(C(=O)Nc3ccc4c(c3)OCCO4)c3ccccc3n2)cc1 do in these assays?
Six1-Eya2 blk: -19; gsp antag: -5%; gsp ag: inconclusive; CtBP-E1A inh: -6; D2 PAM: -12; D2 agonist: -6.5

How did CN(CCOc1ccccc1)C(=O)c1cc(COc2c(F)cccc2F)on1 do in these assays?
Six1-Eya2 blk: 16; gsp antag: -14%; gsp ag: -1%; D2 PAM: -11; D2 agonist: 7.3

Results for Cc1c(-n2cc(C(=O)O)c(=O)c3cc(F)c(N4CCCC(O)C4)c(F)c32)c(=O)n(-c2ccccc2)n1C (stereo not given) ?
Six1-Eya2 blk: -1; gsp antag: 8%; gsp ag: 8%; CtBP-E1A inh: -1; D2 PAM: -5; D2 agonist: -2.0

Results for Cc1cc(C)c2c(N=NN3CCOCC3)[nH]nc2n1 ?
Six1-Eya2 blk: 2; gsp antag: 19%; gsp ag: -4%; CtBP-E1A inh: -1; D2 PAM: -20; D2 agonist: -1.3

How did N#Cc1ccc(C(=O)N2CCN(C(=O)C3CCCO3)CC2)cc1 (stereo not given) do in these assays?
Six1-Eya2 blk: 3; gsp antag: 15%; gsp ag: -7%; CtBP-E1A inh: -3; D2 PAM: -3; D2 agonist: -7.4

What do the screens show for `CN(C(=O)c1ccccc1C(=O)OCC(=O)c1ccccc1)c1ccccc1`?
Six1-Eya2 blk: -2; gsp antag: -4%; gsp ag: -25%; CtBP-E1A inh: 1; D2 PAM: 2; D2 agonist: 2.0

What do the screens show for `Nn1c(Cc2ccccc2)nc2ccccc2c1=O`?
Six1-Eya2 blk: 6; gsp antag: 13%; gsp ag: 1%[15.4 µM]; CtBP-E1A inh: 2; D2 PAM: 0; D2 agonist: -1.0

How did COc1cccc(CN2CCN(CC(=O)Nc3ccccc3Cl)CC2)c1 do in these assays?
Six1-Eya2 blk: -12; gsp antag: 1%; gsp ag: -9%; CtBP-E1A inh: -5; D2 PAM: -23; D2 agonist: -3.9

Pulled by structure from the entries so far:
How did COc1cc2c(cc1OC)/C(=C/c1ccc(Br)cc1)C(=O)OC2 do in these assays?
Six1-Eya2 blk: -3; gsp antag: 10%; gsp ag: 6%; CtBP-E1A inh: 9; D2 PAM: -6; D2 agonist: -1.6

How did CN(CCOc1ccccc1)C(=O)c1cc(COc2c(F)cccc2F)on1 do in these assays?
Six1-Eya2 blk: 16; gsp antag: -14%; gsp ag: -1%; D2 PAM: -11; D2 agonist: 7.3

Next part:
Results for O=C1C=C(NNC(=O)c2ccccc2Br)CCC1 ?
Six1-Eya2 blk: 0; gsp antag: 8%; gsp ag: 3%; CtBP-E1A inh: 4; D2 PAM: -6; D2 agonist: 7.3

What do the screens show for `Cc1ccc2nc(N(CCCN(C)C)C(=O)CN3C(=O)c4ccccc4C3=O)sc2c1`?
Six1-Eya2 blk: 3; gsp antag: -5%; gsp ag: -1%; D2 PAM: -21; D2 agonist: -8.5

How did CCCC(C)NC(=O)COc1ccc(S(=O)(=O)c2ccc(OCC(=O)NC(C)CCC)cc2)cc1 (stereo not given) do in these assays?
Six1-Eya2 blk: 10; gsp antag: 14%; gsp ag: -1%; CtBP-E1A inh: 0; D2 PAM: 2; D2 agonist: 0.1

Results for NS(=O)(=O)c1cc(C(=O)O)c(NCc2ccco2)cc1Cl ?
Six1-Eya2 blk: 1; gsp antag: 3%; CtBP-E1A inh: 9; D2 PAM: -7; D2 agonist: -6.3

Results for CCCCCC(=O)NNC(=O)Cc1ccc([N+](=O)[O-])cc1 ?
Six1-Eya2 blk: 7; gsp antag: 10%; gsp ag: 1%[15.4 µM]; CtBP-E1A inh: 0; D2 PAM: -1; D2 agonist: -1.4

How did O=C(Nc1ccc([N+](=O)[O-])cc1)c1cccc([N+](=O)[O-])c1 do in these assays?
Six1-Eya2 blk: -1; gsp ag: -4%; CtBP-E1A inh: 6; D2 PAM: -11; D2 agonist: 1.4

How did COc1ccc(C(=O)N/N=C/c2sc(=O)n(Cc3cccc(C(=O)O)c3)c2Cl)cc1 do in these assays?
Six1-Eya2 blk: -7; gsp antag: -2%; gsp ag: -1%; CtBP-E1A inh: -28; D2 PAM: 7; D2 agonist: 1.2

How did COc1ccccc1NS(=O)(=O)c1cccc(C(=O)OCc2nc3ccccc3s2)c1 do in these assays?
Six1-Eya2 blk: 3; gsp antag: -10%; gsp ag: 12%; CtBP-E1A inh: -11; D2 PAM: 7; D2 agonist: -2.9

Results for Cc1ccc(NC(=O)c2cc3c(=O)oc4ccccc4c3s2)nc1 ?
Six1-Eya2 blk: 1; gsp antag: 3%; gsp ag: 18%[15.4 µM]; CtBP-E1A inh: -24; D2 PAM: -5; D2 agonist: -5.6

How did O=C(Nc1ccccc1Cl)C1C2CCC3C(CCC21)C3(Cl)Cl (stereo not given) do in these assays?
Six1-Eya2 blk: 5; gsp antag: 11%; gsp ag: -36%; CtBP-E1A inh: -9; D2 PAM: -20; D2 agonist: -1.5

What do the screens show for `Cc1ccc2cc(CCNC(=O)C(=O)c3c[nH]c4ccccc34)c(=O)[nH]c2c1`?
Six1-Eya2 blk: 3; gsp antag: 10%; gsp ag: -13%[15.4 µM]; CtBP-E1A inh: 6; D2 PAM: -2; D2 agonist: 5.3

What do the screens show for `OCC[C@H]1C[C@@H](O)[C@H](O)[C@@]2(CCc3ccccc3CO2)O1`?
Six1-Eya2 blk: 1; gsp antag: 10%; gsp ag: 8%; CtBP-E1A inh: 0; D2 PAM: -6; D2 agonist: -1.1

Results for Cc1ccccc1NC(=O)/C(C#N)=C/c1ccsc1 ?
Six1-Eya2 blk: -6; gsp antag: 12%; gsp ag: -1%[15.4 µM]; CtBP-E1A inh: 2; D2 PAM: -7; D2 agonist: 0.4

How did Nc1nonc1OCCN1CCN(c2ccc([N+](=O)[O-])c3cccnc23)CC1 do in these assays?
Six1-Eya2 blk: -1; gsp antag: -18%; gsp ag: 15%; CtBP-E1A inh: -5; D2 PAM: -14; D2 agonist: 5.5

What do the screens show for `Cc1ccc(NS(=O)(=O)c2ccc3c(c2)OCCCO3)cc1S(=O)(=O)N1CCOCC1`?
Six1-Eya2 blk: 5; gsp antag: -4%; gsp ag: -19%; CtBP-E1A inh: -7; D2 PAM: -4; D2 agonist: 3.2

How did CCN(CC(=O)Nc1ccc(NC(C)=O)cc1)C(=O)c1ccc(C(=O)c2ccccc2)cc1 do in these assays?
Six1-Eya2 blk: 8; gsp antag: 1%; gsp ag: -12%; CtBP-E1A inh: -8; D2 PAM: 1; D2 agonist: 1.8

Results for CC(=O)c1cccc(N(CC(=O)O)S(C)(=O)=O)c1 ?
Six1-Eya2 blk: 11; gsp antag: 7%; gsp ag: 1%; CtBP-E1A inh: 3; D2 PAM: -4; D2 agonist: -3.6

Results for CCc1ccc(-n2c(=S)sc3c(=O)n(-c4ccccc4C)c(SCC(=O)O)nc32)cc1 ?
Six1-Eya2 blk: -2; gsp antag: -14%; gsp ag: 18%; CtBP-E1A inh: -14; D2 PAM: -1; D2 agonist: 6.9

What do the screens show for `FC(F)(F)c1nc2ccccc2nc1N/N=C\c1ccccc1`?
Six1-Eya2 blk: inconclusive; gsp antag: 9%; gsp ag: inconclusive; CtBP-E1A inh: inconclusive; D2 PAM: -22; D2 agonist: -3.2

Assay outcomes as filed in PubChem BioAssay.
